Assay outcomes from PubChem.
Sa helicase inh = inhibitors of S. aureus replicative helicase, primary screen, biochemical, fluorescence unwinding readout; replicative DNA helicase (DnaC/DnaB), Staphylococcus aureus; purified S. aureus helicase, fluorescence unwinding assay; about half of the hits fall short of the stated cut; inhibition, %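 (tested at about 80 µM)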; hit rate 0.05% among 120,000;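 active = both duplicates at 50% or more, or one of them with a favoured structure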;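 note: 0% = mean of negative control wells and 100% = mean of positive control wells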
MgrA DNA FP = S. aureus MgrA activity modulators, primary screen, biochemical, S. aureus Newman, fluorescence polarization; MgrA-DNA binding; inhibition, %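 (about 10 µg/mL by stock and volumes)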; AID 602314, 2012; hit rate 0.13% among 84,000;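 active = above 50% in either of two replicates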;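 note: 0% = protein plus DNA without compound and 100% = DNA alone without protein; higher means less MgrA bound to DNA so lower polarization; one replicate is shown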
Starred values were filed as active, the others as inactive; . = not tested or not shown.

structure	Sa helicase inh	MgrA DNA FP
O=C1c2ccccc2C(=O)N1CCCCN(C(=O)c1ccco1)c1ccc(Cl)cc1	-20.0	.
O=C(NC1CCCCC1)C(c1ccccc1)N1CCc2ccccc21 (stereo not drawn)	10.0	4.8
Oc1ccc(-c2ccccc2)cc1CN1CCN(c2ccccc2)CC1	-19.0	.
CC(C)n1c(=N)c(C#N)cc2c(=O)n3ccccc3nc21	-88.0	.
CC(C)c1ccc(NC(=O)C(c2ccccc2)N(C)c2ccccc2)cc1 (stereo not drawn)	7.0	0.0
Nc1nc(-c2ccc(NC(=O)c3ccccc3)cc2)cs1	13.0	.
O=C(CSCc1ccco1)c1ccco1	7.0	.
NC(=O)CC1C=CS(=O)(=O)C1 (stereo not drawn)	-3.0	-0.5

Entries shown so far containing a carbonyl joined to an NH by a bond outside any ring:
structure	Sa helicase inh	MgrA DNA FP
O=C(NC1CCCCC1)C(c1ccccc1)N1CCc2ccccc21 (stereo not drawn)	10.0	4.8
CC(C)c1ccc(NC(=O)C(c2ccccc2)N(C)c2ccccc2)cc1 (stereo not drawn)	7.0	0.0
Nc1nc(-c2ccc(NC(=O)c3ccccc3)cc2)cs1	13.0	.
NC(=O)CC1C=CS(=O)(=O)C1 (stereo not drawn)	-3.0	-0.5

(further entries)
structure	Sa helicase inh	MgrA DNA FP
O=C1NCCCC1C(=O)Nc1cccc(C(F)(F)F)c1 (stereo not drawn)	7.0	-0.2
Cc1ccc(CN2C(=O)c3ccccc3Sc3ccc(C(=O)NCCN4CCOCC4)cc32)cc1	7.0	-0.6
Cc1cc(C)c(S(=O)(=O)NCCc2ccncc2)c(C)c1	-8.0	2.8
CCOC(=O)c1ccc(N2C(=O)c3[nH]nc(-c4ccc(OC)cc4)c3C2c2ccc(OC)cc2)cc1 (stereo not drawn)	-38.0	.
OC(CNC12CC3CC(CC(C3)C1)C2)COCc1ccco1 (stereo not drawn)	9.0	.
NC(=O)COC(=O)c1cn(-c2ccccc2)nc1-c1ccccc1	7.0	.
CCOC(=O)c1cc(/C(C)=N/NS(=O)(=O)c2ccc(F)c(Cl)c2)on1	17.0	.
Clc1ccc(Cn2c(/N=C/c3ccc4c(c3)OCO4)nc3ccccc32)cc1	7.0	1.6

Continuation:
structure	Sa helicase inh	MgrA DNA FP
COc1cccc(CNC(=O)c2ccc3nc(SCc4ccc(F)cc4)n(C)c3c2)c1	17.0	1.2
COc1cc(Br)cc(/C=C2/C(=O)NC(=O)N(c3ccc(C)cc3)C2=O)c1O	.	18.5
CC1=CC(=C(C#N)C#N)C=C(C)N1Cc1ccc(Cl)cc1	9.0	.
Cc1nc(COc2ccc(C(C)(C)C)cc2)sc1C(=O)NN	.	-2.2
CC(=O)N(Cc1cc2cccc(C)c2[nH]c1=O)C(C)(C)C	-7.0	0.1
CC1=CC(=O)C(C(=O)/C=C/c2cc3ccccc3nc2N2CCOCC2)C(=O)O1 (stereo not drawn)	-109.0	.
COc1ccccc1CN(C)Cc1nc(N)nc(Nc2ccccc2C)n1	24.0	.
COc1ccc(-n2cnnc2SCc2cnc(-c3ccccc3)s2)cc1	-8.0	.

The list continues.
structure	Sa helicase inh	MgrA DNA FP
CN(C)S(=O)(=O)c1cccc(COC(=O)c2cccnc2Cl)c1	6.0	.
CC1CCCC(NC(=O)Cn2c3ccccc3c3cn[nH]c(=O)c32)C1C (stereo not drawn)	-22.0	.
O=C(N/N=C/c1ccco1)c1cccc(S(=O)(=O)Nc2cccc(Cl)c2)c1	20.0	.
Cc1ccc(C#N)o1	9.0	.
O=C(O)C1CCCCC1C(=O)N1CCN(c2ccccn2)CC1 (stereo not drawn)	8.0	5.9
Cc1ccc(C(=O)O)c2c1N[C@H](c1ccccc1Cl)C1CC=CC21 (stereo partly drawn)	6.0	-0.4
CC(C)NC(=O)CSc1nnc(-c2ccc3c(c2)OCO3)o1	8.0	.
COc1ccc(C2CC(C(F)(F)F)n3nc(C(=O)Nc4ccc(F)cc4F)c(Cl)c3N2)cc1OC (stereo not drawn)	.	0.8

Further compounds.
structure	Sa helicase inh	MgrA DNA FP
N#Cc1cnc(=S)[nH]c1N	.	5.3
N#Cc1nc2n(c1C#N)CN(CCc1ccc(Cl)cc1Cl)CN2	-3.0	.
COc1cccc(-c2cc(C(=O)N3CCN(c4cc(C)ccc4C)CC3)[nH]n2)c1	9.0	2.4
Cc1cc(-c2nc(C34CC5CC(CC(C5)C3)C4)cs2)no1	-27.0	.
CCc1nn2c(C(=O)NCc3ccccc3)cc(=O)nc2s1	-11.0	.
O=C(Nc1ccccc1Cl)c1ccc(-n2cnnc2)cc1Cl	19.0	1.6
Cc1ccc2cc(C(=O)O)[nH]c2c1	18.0	.
Cc1ccc(S(=O)(=O)Nc2cc3c(cc2N2CCOCC2)n(C)c(=O)c(=O)n3C)cc1	12.0	.

New compounds follow
structure	Sa helicase inh	MgrA DNA FP
Cc1ccc2onc(CNC(=O)N3CCN(Cc4ccc5c(c4)OCO5)CC3)c2c1	-16.0	.
C=CCN(CC=C)C(=O)c1c(-c2ccccc2Cl)noc1C	6.0	3.5
Cc1ccc(NC(=O)c2ccco2)c(NC(=O)COc2ccc(I)cc2)c1	16.0	1.2
CCC(=O)Oc1ccc(NC(=S)NCCCO)cc1	.	-2.2
O=C(NCCOC12CC3CC(CC(C3)C1)C2)c1cc2ccccc2oc1=O	6.0	-2.2
O=C(NCC(c1ccc(Cl)cc1)N1CCOCC1)c1ccccc1 (stereo not drawn)	0.0	.
CCCNc1nc2ccccn2c(=O)c1/C=C1\SC(=S)NC1=O	-27.0	13.6
CCc1cccc(NC(=O)[C@@H]2CCCN2C2=NS(=O)(=O)c3ccccc32)c1	-10.0	.

Following part:
structure	Sa helicase inh	MgrA DNA FP
O=C1CCCN2N=C(SCC(=O)N3CCc4ccccc43)SC2=N1	-15.0	.
CCOc1cc(/C=c2/sc3nc4ccccc4n3c2=O)cc(Br)c1O	.	-0.3
CCOC(=O)N1N=C(C)CC1(O)c1ccccc1 (stereo not drawn)	13.0	-0.8
O=C(Nc1ccccc1NC(=O)c1cccs1)c1cccs1	-1.0	0.2
Cn1ncc(Br)c1-c1cccc(NC(=O)COCC(=O)O)c1	-22.0	.
Cc1cc(N2OCc3ccccc3CO2)ccc1N	4.0	0.2
CCC(C(=O)Nc1ccc(OC)c(OC)c1)c1ccccc1 (stereo not drawn)	-6.0	3.7
COc1ccc(-c2nnn(CC(=O)N(c3ccccc3)C(C(=O)NC3CCCC3)c3ccco3)n2)cc1 (stereo not drawn)	17.0	-0.8

(cont.)
structure	Sa helicase inh	MgrA DNA FP
ClCc1nc(Cl)c2c3c(sc2n1)CCCC3	-9.0	-4.5
COc1ccc(C2Oc3ccccc3C=C2[N+](=O)[O-])cc1 (stereo not drawn)	.	-2.5
c1ccc(-c2noc(CSc3nnnn3C3CCCCC3)n2)cc1	4.0	.
COc1ccc(/C(C)=N/O)cc1CN1CCCC1	.	-1.3
CC12CC(NC(=O)N1c1ccccc1)c1ccccc1O2 (stereo not drawn)	2.0	.
CCc1ccc(NC(=S)N(CCCN2CCCC2)Cc2ccco2)cc1	5.0	-0.7
CN(CC(=O)N1CCCCC1)S(=O)(=O)c1ccc2c(c1)c(=O)n(C)c(=O)n2C	-16.0	.
Cc1cc(/C=C(\C#N)C(=O)OCc2cc(=O)oc3cc(O)ccc23)c(C)n1CC(C)C	-22.0	.

(next part)
structure	Sa helicase inh	MgrA DNA FP
N#C/C(=C\c1cccs1)Sc1nc2ccccc2s1	2.0	-1.6
CCn1c(=NC(=O)C2CC2)sc2cc(Br)ccc21	24.0	.
COc1ccc(S(=O)(=O)N2CCCCC2C(=O)O)cc1OC (stereo not drawn)	10.0	-2.5
CCOCCOC(=O)C1=C(C)NC2=C(C(=O)CCC2)C1c1cc(OC)c(OC)cc1Br (stereo not drawn)	.	-1.2
O=C(NO)c1cc(OCC(F)(F)F)ccc1OCC(F)(F)F	.	0.1
CN1C=NC(O)(c2ccccc2)c2cc(Cl)ccc21 (stereo not drawn)	.	-0.3
CCCc1cc(=O)[nH]c(SCC(=O)c2cc(C)n(-c3nccs3)c2C)n1	-9.0	.
O=c1onc(-c2ccccc2)n1-c1cccc(C(F)(F)F)c1	.	-0.4

(list continues)
structure	Sa helicase inh	MgrA DNA FP
N#Cc1ccc(C(=O)CN2C(=O)S/C(=C\c3ccccc3)C2=O)cc1	-6.0	.
COc1cc(Cc2cc(OC)c(C)cc2OC)c(OC)cc1C	.	1.2
COc1ccc(NC(=O)CN2NS(=O)(=O)c3ccccc3C2=O)cc1Cl	-12.0	.
CCn1cnc2nc(N)[nH]c(=O)c21	5.0	.
O=C(COC(=O)C1(c2ccc(F)cc2)CCCC1)NCc1ccco1	-2.0	1.2
O=C(NCCOc1ccccc1)c1ccccc1Cl	13.0	0.6
CCN(CC)C(=O)CN1C(=O)C2(OCC(C)(c3ccccc3)CO2)c2ccccc21 (stereo not drawn)	4.0	1.8
CC1CCCN(CCCNC(=O)C2CCCN(c3ncnc4c3nc3n4CCCCC3)C2)C1 (stereo not drawn)	-4.0	-2.5

(continued)
Sequence of screens: Sa helicase inh	MgrA DNA FP
- CC(C)(O)C(=O)/C=C/c1ccc(Cl)cc1
    .	1.9
- O=C(CCSc1nc(-c2ccco2)cc(C(F)(F)F)n1)NCCc1ccccc1
    8.0	0.2
- COC(=O)c1ccc(CSC(=N)N)o1
    0.0	-2.0
- CN(C)c1ccc(NC(=O)COC(=O)Cc2ccc(Br)cc2)cc1
    20.0	3.3
- CC(C)(CNc1nsc2ccccc12)N1CCOCC1
    7.0	.
- CCOC(=O)c1cc(C)nc(S(C)(=O)=O)c1C#N
    .	-2.8
- Nc1cnn(C2OC(COC(=O)c3ccccc3)C(O)C2O)c(=O)n1 (stereo not drawn)
    -4.0	2.7
- CCNc1ccc(C(=O)O)cc1
    .	-3.3
- COc1ccc(Cc2nc3c4c5c(sc4ncn3n2)C(C)(C)NC(C)(C)C5)cc1
    .	-1.4
- COC(=O)CSc1nc(C)nc(SC)c1C#N
    .	-1.8
- c1ccc(-c2[nH]ncc2CN2CCc3ccccc3C2)cc1
    .	-1.1
- COc1ccc(C2NN=C3c4[nH]c5ccc(C)cc5c4CCC32)cc1 (stereo not drawn)
    -8.0	-0.3
- COc1ccc(CCn2c(N)cc(=O)[nH]c2=O)cc1OC
    2.0	-3.4
- O=C(CSc1nnc2c(n1)[nH]c1ccccc12)NCc1ccco1
    8.0	4.7
- CCn1c(SCC(=O)OCC(=O)Nc2cccc(C(F)(F)F)c2)nnc1-c1ccco1
    -4.0	.
- CC(=O)Nc1ccc(NS(=O)(=O)c2cc(Cl)sc2Cl)cc1
    .	0.6
- O=C(O)CC(c1ccccc1)n1cnnn1 (stereo not drawn)
    11.0	-9.0
- CCCn1cnc2c(sc3nc4c(cc32)CSC(C)(C)C4)c1=O
    5.0	0.0
- Cc1cc(C)c2nc(N3CCC(C(=O)NCC4CCCO4)CC3)sc2c1 (stereo not drawn)
    -2.0	.
- CC(C)CC1=NN2C(=N)/C(=C/c3cccs3)C(=O)N=C2S1
    8.0	0.2

The list goes on; the last two above are carried over.
Sequence of screens: Sa helicase inh	MgrA DNA FP
- Cc1cc(C)c2nc(N3CCC(C(=O)NCC4CCCO4)CC3)sc2c1 (stereo not drawn)
    -2.0	.
- CC(C)CC1=NN2C(=N)/C(=C/c3cccs3)C(=O)N=C2S1
    8.0	0.2
- O=C(O)CC(CC(=O)O)c1ccc(Cl)cc1Cl
    .	-3.5
- Cn1c(SCC(=O)Nc2ccc3c(c2)OCO3)nc2c([nH]c3ccccc32)c1=O
    -18.0	.
- CC(=O)N1CCN(CC(=O)Nc2ccc3c(c2)OC(F)(F)O3)CC1
    27.0	.
- Cc1ccc(Cn2c(=O)c3ccccc3n3c(CCC(=O)O)nnc23)cc1
    -13.0	.
- CN1CCN(S(=O)(=O)c2ccc(Br)cc2)CC1
    8.0	-3.7
- O=C(O)CCCc1nc2ccccc2s1
    6.0	-3.7
- CCN(CC)c1ccc2cc(-c3nc4ccccc4n3C)c(=O)oc2c1
    -90.0	.
- CCc1ccc2[nH]c(=O)c(CN(Cc3ccccc3)Cc3nnnn3C3CCCC3)cc2c1
    10.0	-1.6
- CCOC(=O)N1CCN(C(=O)c2cc(I)ccc2NC(=O)c2ccco2)CC1
    11.0	0.8
- Cc1csc(=O)n1CN1CCN(S(=O)(=O)c2ccccc2C#N)CC1
    -6.0	.
- COc1ccc(Cl)cc1S(=O)(=O)Nc1ccc(CC(=O)O)cc1
    11.0	.
- O=C(O)C1CC(=O)N(CCc2cccs2)C1 (stereo not drawn)
    .	-3.8
- Cc1cc(C)c(C)c(S(=O)(=O)NC2(C#N)CCCCC2)c1C
    1.0	.
- COC(=O)c1c(OC)ccc(N=CNO)c1OC
    .	-0.6
- NC(=O)Cc1nc2ccccc2[nH]1
    -34.0	3.2
- Cc1ccc(N2C3=C(C(=O)CC(C)(C)C3)C(c3cnn(C)c3)C3=C2CC(C)(C)CC3=O)cc1
    7.0	2.0
- CCOC(=O)c1c(C)nn(-c2ccc([N+](=O)[O-])cc2)c1C
    .	-2.0
- CC1(O)N(CCc2ccccc2)C(=O)OC12CCCCC2 (stereo not drawn)
    9.0	-1.9
- C(=Nc1ccccc1)c1ccc(Oc2ccccc2)cc1
    3.0	-1.1
- Cc1onc(-c2c(Cl)cccc2Cl)c1NC(=O)O/N=C/c1ccc(Cl)cc1Cl
    .	-2.0

Next structures:
Sequence of screens: Sa helicase inh	MgrA DNA FP
- O=C(NC(=O)c1cc(-c2ccc(Cl)cc2)oc1C(F)(F)F)c1ccccc1O
    .	1.4
- C#CCNC(=O)NC1CCCN(S(=O)(=O)c2ccc(C)cc2)C1 (stereo not drawn)
    11.0	-3.8
- O=C(CSc1nnc(Cc2cccs2)n1C1CCCCC1)c1ccccc1
    3.0	.
- CCN(c1ccccc1)S(=O)(=O)c1ccc(Sc2nnc(-c3cccs3)n2CC2CCCO2)nc1 (stereo not drawn)
    23.0	.
- Cc1ccc2nc(NCCO)[nH]c2c1
    12.0	-1.1
- Cc1ccc2cc3cc(C(=O)N4CCN(c5cc(Cl)ccc5C)CC4)oc3nc2c1
    4.0	-2.2

These rows are one share of the data; rates above refer to the full screens.
